# Screening data (PubChem)
# StopGo reporter – High Throughput Screening for Foot and Mouth Disease Virus Antivirals | human cells with a luciferase reporter of 2A StopGo recoding; control for the full effect not named in the record | Potency, µM (series often up to 57.9 µM), for inactives: top-dose signal change, negative = less light | 410,000 tested, 1.2% active; active = well fitted falling curve with a large enough effect; inconclusive = small, poorly fitted or top-dose-only effect; inactive = no such curve, though single readings can be large or run the other way; tested in HEK293T cells; also: nearly all actives have a fitted effect of over 45% in size; luciferase light after 4 h
# RE007 growth inh – qHTS Assay for Inhibitors of the HIV-1 protein Vpr; 360,000 tested, 0.21% active; Potency, µM (top dose mostly 92.2 µM), without a hit: top-dose activity change, negative = less growth; S. pombe RE007 Vpr strain, BacTiter-Glo ATP luminescence, 24 h; control for the full effect not named in the record; active = well fitted falling curve with a large enough effect; inconclusive = small, poorly fitted or top-dose-only effect; inactive = no such curve, though single readings can be large or run the other way;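 also: nearly all actives have a fitted effect of over 50% in size; the assay follows cell death caused by Vpr and the record does not say whether a fall means rescue or toxicity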
#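 Fission yeast strain RE007, carrying one chromosomally integrated HIV-1 vpr copy, was seeded at OD 0.01 in PMG+AL medium with 23 nL pinned compound. After 24 h at 30 °C and 99% humidity, viability was read by BacTiter-Glo luminescence.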
# * = called active by the depositor; ? = inconclusive; [ ] = dose if it differs, or a comment. % is scaled to controls: 0 for no effect and ±100 for the full control effect; potency is read from the fitted curve at half-maximal effect.
(1) CCN(CC)C(=O)c1cccc(-c2csc(C(C)(NC(C)=O)c3ccc(OC)cc3)n2)c1 (stereo not drawn)
(2) Cc1ccc(S(=O)(=O)N2C[C@H]3C(=O)C[C@@H](c4ccccc4F)N(S(=O)(=O)c4ccc(C)cc4)[C@H]3C[C@H]2c2ccccc2)cc1
(3) COc1ccc([C@@H]2C[C@H]3[C@@H](CN2S(=O)(=O)c2ccccc2)C(=O)C[C@@H](c2cccc(Cl)c2)N3S(=O)(=O)c2ccc(C)cc2)cc1
(4) C[C@H](CO)N1C[C@H](C)[C@H](CN(C)C(=O)c2ccncc2)OCc2ccccc2-c2c(n(C)c3ccccc23)C1=O
(5) COCCNc1nc(NCc2ccccc2OC)c2sccc2n1
(6) COc1ccc(C2=NOC(c3nnc(-c4ccccc4)o3)C2)cc1 (stereo not drawn)
Compound	1	2	3	4	5	6
RE007 growth inh	11.7%	-4.8%	3.4%	4.6%	-6.8%	9.6%
StopGo reporter	-1.6%	7.0%	-22.6%	0.0%	?	24.2%

(7) CC(=O)N1CCCC(C)(C(=O)N(C)Cc2cccc3ccccc23)C1 (stereo not drawn)
(8) Cc1c(C(=O)NNC(=O)c2csc(N3CCOCC3)n2)oc2ccc(Br)cc12
(9) Cc1ccc2nc(-c3ccc(Br)cc3)cc(C(=O)NCC3CCCO3)c2c1 (stereo not drawn)
(10) C[C@H](O)[C@@H]1CN2CCc3c([nH]c4ccccc34)[C@@H]2C[C@@H]1N(C)Cc1cc(Cl)cc(Cl)c1
(11) Cc1cc2nc(C(C)(C)C)c(Cc3ccccc3)n2c(C)c1Br
(12) COc1cccc(C(O)c2ncc(-c3ccc(C(F)(F)F)cc3)[nH]2)c1 (stereo not drawn)
Compound	7	8	9	10	11	12
RE007 growth inh	3.4%	15.3%	-10.9%	-0.1%	1.7%	2.9%[18.4 µM]
StopGo reporter	-10.8%	8.2%	7.1%	?	-19.6%	-16.6%

(13) C[C@@H](c1ccccc1)N1C[C@H](COCc2ccccc2)Oc2cc(N3CC[C@H](N(C)C)C3)ccc2S1(=O)=O
(14) COc1ccc(C2OC(CCc3ccccc3)CC3=C2C(=O)OC(C)(C)O3)cc1 (stereo not drawn)
(15) Cc1ccc(F)cc1C(=O)N1CCCC(c2cc(C(=O)NCc3ccc(F)cc3)no2)C1 (stereo not drawn)
(16) Nc1nc2c(ncn2[C@@H]2O[C@H](CNC(=O)[C@H](N)C3CCCCC3)[C@@H](O)[C@H]2O)c(=O)[nH]1
(17) Cc1nn(-c2ccc(Cl)cc2)c(Cl)c1/C=N/NC(=O)c1ccc(NS(=O)(=O)c2cccs2)cc1
(18) CCCCn1nnnc1C(c1cc2ccccc2o1)N1CCCN(C(=O)OC(C)(C)C)CC1 (stereo not drawn)
Compound	13	14	15	16	17	18
RE007 growth inh	19.3%	4.9%	8.6%[18.4 µM]	-5.6%	-3.1%	0.6%
StopGo reporter	11.9%	-6.2%	?	-15.2%	-15.5%	-12.0%

(19) Cc1ccc(S(=O)(=O)N2C[C@H]3C(=O)C[C@@H](c4ccccc4C)N(S(=O)(=O)c4ccc(C)cc4)[C@H]3C[C@H]2c2ccccc2)cc1
(20) COCCN(C(=O)COC(=O)c1ccc(Br)o1)c1c(N)n(Cc2ccccc2)c(=O)[nH]c1=O
(21) COc1cncc(-c2cnc3sc(NCCc4ccccn4)nn23)c1
(22) CC(=O)NC(c1cccc(F)c1)c1nc(-c2ccoc2)cs1 (stereo not drawn)
(23) Clc1ccc(-c2cc3nc(NCc4cccc(Cl)c4)ccn3n2)cc1
(24) COc1ccc(CCC(=O)N2c3ccccc3N=C(c3ccc(C(F)(F)F)cc3)C2C(=O)NC2CCCC2)cc1 (stereo not drawn)
Compound	19	20	21	22	23	24
RE007 growth inh	12.6%	0.0%	-0.4%[18.4 µM]	-9.6%	?	0.0%
StopGo reporter	-12.6%	-5.6%	0.0%	-16.1%	40.8%[activator]	48.7%[activator]

(25) CC1(C(=O)Nc2ccc3c(c2)OCO3)CCN1C(=O)C1CCCCC1 (stereo not drawn)
(26) COc1ccccc1N1CCN(CCS(=O)(=O)c2cc(Cl)ccc2Cl)CC1
(27) Cc1noc(C)c1C(=O)N(C)C[C@@H]1OCc2ccccc2-c2c(n(C)c3ccccc23)C(=O)N([C@H](C)CO)C[C@H]1C
(28) CC(C(=O)NC(C)(C)C)n1c(C(c2ccccc2)c2ccccc2)nc2ccccc21 (stereo not drawn)
(29) Cc1cc2nc(-c3ccco3)c(Cc3cccc(Cl)c3)n2c(C)c1Br
(30) CCCNC(=O)C1(C)CCCN(CC(=O)c2ccc3c(c2)OCCO3)C1 (stereo not drawn)
Compound	25	26	27	28	29	30
RE007 growth inh	-2.9%[18.4 µM]	-22.4%	-8.2%	4.3%	-28.1%	6.6%
StopGo reporter	-9.5%	-12.0%	-0.4%	-12.2%	?	5.6%

(31) O=C(O)CN=C(Nc1cc(Cl)cc(Cl)c1)NC(c1ccccc1)c1ccccc1
(32) COc1ccc(NC(=O)N(C)C[C@H]2OCc3cnnn3CCCC(=O)N([C@H](C)CO)C[C@@H]2C)cc1
(33) COC(=O)CCCNC(=O)CCc1nnc(-c2ccc(-c3ccccc3)cc2)o1
(34) OC[C@@H]1CN(Cc2ccccc2)C[C@H](n2cnc3c(N4CCN(c5ccccc5)CC4)ncnc32)O1
(35) CCOC1=C2[C@@H](CN(S(=O)(=O)c3ccc(C)cc3)[C@H]2c2ccccc2F)[C@H]2C(=O)N(CC)C(=O)[C@H]2C1
(36) C=CC[C@H](CC(=O)N[C@H](CO)Cc1ccccc1)C(=O)N[C@H](COC(=O)[C@@H](CC=C)Cc1ccc(F)cc1)Cc1c[nH]c2ccccc12
Compound	31	32	33	34	35	36
RE007 growth inh	-22.6%	10.1%	-2.4%	-6.9%	3.1%	1.1%
StopGo reporter	-13.1%	-10.0%	7.9%	?	16.4%	-12.0%

(37) CC1(C(=O)NS(=O)(=O)c2ccc(C#N)cc2)CCN1C(=O)CCC1CCCC1 (stereo not drawn)
(38) Cc1ccc(NC(=O)COC(=O)c2ccc(OC(F)F)cc2)cc1S(=O)(=O)N1CCCCC1
(39) COc1ccccc1CN1CC(C(=O)NCC2(O)CCCCC2)CCC1=O (stereo not drawn)
(40) CC(C(=O)NC(C)(C)C)n1c(-c2ccccc2)nc2ccccc21 (stereo not drawn)
(41) CN(C(=O)c1cccc(NC(=O)Cc2ccc(NC(=O)C3CCCN(C(=O)C4CCCCC4)C3)cc2)c1)C1CCCCC1 (stereo not drawn)
(42) O=C(NCc1ccccc1)C1=C[C@@H](c2ccc3c(c2)OCO3)C[C@@H](OCCCCO)O1
Compound	37	38	39	40	41	42
RE007 growth inh	-0.2%	-7.7%	7.4%	?	-2.5%	5.5%
StopGo reporter	-16.6%	-21.0%	-8.2%	32.9%[activator]	?	13.4%

(43) C[C@H](CO)N1C[C@H](C)[C@@H](CN(C)C(=O)c2ccccn2)Oc2cc(Br)ccc2S1(=O)=O
(44) CCc1noc(C)c1C(=O)N1CCN(c2ccc([N+](=O)[O-])cc2)CC1
(45) CCCCN1C(=O)C(CC(=O)NCCN2CCOCC2)CC(C(=O)N(CC)CC)=C1C (stereo not drawn)
(46) Cc1ccccc1S(=O)(=O)N(C)C[C@H]1OCc2cn(nn2)CCCC(=O)N([C@H](C)CO)C[C@@H]1C
(47) C[C@@H]1CN([C@H](C)CO)C(=O)c2c(c3ccccc3n2C)-c2ccccc2CO[C@H]1CN(C)Cc1cccc(C(=O)O)c1
(48) CCCCN(C=O)c1c(CC)nc2c(OCC3CCCCC3)cccn12
Compound	43	44	45	46	47	48
RE007 growth inh	-2.0%	-9.9%	-2.8%	6.2%	15.8%	-18.7%
StopGo reporter	8.3%	?	-22.6%	1.5%	-20.1%	?

# Entries of single compounds as entered above. Order of values: RE007 growth inh | StopGo reporter
# `CCCCN(C=O)c1c(CC)nc2c(OCC3CCCCC3)cccn12` is listed with -18.7% | ?
# `CCCCN1C(=O)C(CC(=O)NCCN2CCOCC2)CC(C(=O)N(CC)CC)=C1C` (stereo not drawn) is listed with -2.8% | -22.6%
# `C[C@H](CO)N1C[C@H](C)[C@@H](CN(C)C(=O)c2ccccn2)Oc2cc(Br)ccc2S1(=O)=O` is listed with -2.0% | 8.3%
# `Cc1ccccc1S(=O)(=O)N(C)C[C@H]1OCc2cn(nn2)CCCC(=O)N([C@H](C)CO)C[C@@H]1C` is listed with 6.2% | 1.5%
# `C[C@@H]1CN([C@H](C)CO)C(=O)c2c(c3ccccc3n2C)-c2ccccc2CO[C@H]1CN(C)Cc1cccc(C(=O)O)c1` is listed with 15.8% | -20.1%

# Other compounds:
(49) COc1ccc(Nc2nc3cc(-c4sccc4C)sc3c(=O)n2C)cc1OC
(50) CC1=C(C(=O)N(C)C)CC(CC(=O)NC2CC2)C(=O)N1Cc1ccccc1 (stereo not drawn)
(51) FC(F)(F)c1ccc(-c2nc3ccccc3s2)cc1
(52) Nc1c(Br)cc(Br)c2c1[nH]c(=O)c1ccccc12
(53) COc1ccc(-c2ccc3c(c2)O[C@@H](CN(C)C(=O)c2ccccc2F)[C@@H](C)CN([C@@H](C)CO)S3(=O)=O)cc1
(54) CCOC(=O)[C@]12CCC=C1N(Cc1ccco1)C(=O)[C@H](CC(=O)NCc1cccc(C(F)(F)F)c1)C2
Compound	49	50	51	52	53	54
RE007 growth inh	7.2%	-7.3%	-2.5%	0.2%	?	2.3%
StopGo reporter	23.5%	-24.7%	-5.5%	-9.0%	0.4%	-7.1%

(55) CCc1nc2ccc(C(=O)NCCN3CCNC3=O)cn2c1N(CC)Cc1cccc(Br)c1
(56) c1ccc2c(-c3cnc4cccnn34)cncc2c1
(57) CC(CN1CCCCC1)NC(=O)c1scnc1-c1ccccc1 (stereo not drawn)
(58) O=C1NC[C@@H](CCCCN2C[C@H](Cc3ccc(O)cc3)N(CCc3ccc(O)cc3)C(=O)C2=O)N(CCc2ccc(O)cc2)C1=O
(59) O=C(NCC1CCCO1)c1ccc(Cl)c(NS(=O)(=O)c2ccc(F)cc2)c1 (stereo not drawn)
(60) CN(Cc1cnn(-c2ccccc2)c1)C(=O)c1cccc(S(=O)(=O)N(C)c2ccccc2)c1
Compound	55	56	57	58	59	60
RE007 growth inh	-21.7%	-10.2%[18.4 µM]	-18.0%	-6.0%	19.8%	-18.0%
StopGo reporter	-20.5%	-5.9%	-12.2%	-22.9%	-15.7%	0.0%

# Continued (three carried over from the part before).
(58) O=C1NC[C@@H](CCCCN2C[C@H](Cc3ccc(O)cc3)N(CCc3ccc(O)cc3)C(=O)C2=O)N(CCc2ccc(O)cc2)C1=O
(59) O=C(NCC1CCCO1)c1ccc(Cl)c(NS(=O)(=O)c2ccc(F)cc2)c1 (stereo not drawn)
(60) CN(Cc1cnn(-c2ccccc2)c1)C(=O)c1cccc(S(=O)(=O)N(C)c2ccccc2)c1
(61) COc1ccccc1CNC(=O)C(=O)NCC1CCCN1S(=O)(=O)c1cc(C)ccc1C (stereo not drawn)
(62) CSc1ccc(CN2C(=O)C(C)Sc3ccc(C(C)=O)cc32)cc1 (stereo not drawn)
(63) COCn1ccnc1C(=O)c1ccco1
(64) CNc1ncnc2c1ncn2[C@H]1CN(CCN2CCOCC2)C[C@@H](CO)O1
(65) CCc1nc2c(OCc3cc(Cl)cc(Cl)c3)cccn2c1N(C)C(=O)c1ccc(C)cc1
(66) CSc1ccc(OC2(C)CCN(Cc3ccc(OC(C)C)cc3)C2)cc1 (stereo not drawn)
Compound	58	59	60	61	62	63	64	65	66
RE007 growth inh	-6.0%	19.8%	-18.0%	-2.6%	-14.5%	-15.7%	0.1%	3.6%[18.4 µM]	-9.5%[18.4 µM]
StopGo reporter	-22.9%	-15.7%	0.0%	-0.2%	?	12.5%	-13.4%	-24.2%	-18.1%

(67) Cc1ccc(SCc2c(C(=O)N/N=C/c3ccc(C)o3)nnn2-c2nonc2N)cc1
(68) CCN(CC)c1ccc(/C=N/NC(=O)c2nnn(-c3nonc3N)c2CN(C)C2CCCCC2)cc1
(69) Cc1ccc(Cn2c(C(C)Nc3nc(-c4ccc(F)cc4)cs3)nc3cc(Cl)c(Cl)cc32)cc1 (stereo not drawn)
(70) CNC(=O)C1CN(C(=O)c2cccc(S(=O)(=O)N3CCc4ccccc43)c2)c2ccccc2O1 (stereo not drawn)
(71) CC1(C(=O)NCc2cccc3ccccc23)CCN1Cc1ccccc1OC(F)F (stereo not drawn)
(72) COC(=O)[C@@]12C[C@@H](CC(=O)N3CCCC3)C(=O)N(Cc3ccc4c(c3)OCO4)C1=CCC(C)(C)C2
(73) CCOC(=O)c1cc(-c2ccccc2)nn1CC1CC(c2cccc([N+](=O)[O-])c2)=NO1 (stereo not drawn)
Compound	67	68	69	70	71	72	73
RE007 growth inh	-5.1%	-13.8%	-28.5%	-12.9%	-14.6%	-2.8%	6.1%
StopGo reporter	-10.9%	-23.8%	-14.6%	-29.4%	?	-8.4%	-18.0%

# Only part of the results is shown; rates above refer to the full screens.
